High-throughput results as filed in PubChem.
HPGD inh: HPGD (human) dehydrogenase inhibition. P15428. purified HPGD, NADH fluorescence kinetic, PGE2 substrate. Potency, µM, inactives show top-dose activity change, negative = inhibition, actives largely listed as inhibitors. 150,000 tested, 4.3% active. AID 894; active = well fitted inhibition curve with a large enough effect (not every such curve was filed as active); inconclusive = small, poorly fitted or top-dose-only effect, or another doubt; inactive = no such curve, though single readings can be large or run the other way;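 note: top concentration of the series not given in the record; plate controls included wells without enzyme; inactives centre near -10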
Target sequence (P15428 whole entry, looked up): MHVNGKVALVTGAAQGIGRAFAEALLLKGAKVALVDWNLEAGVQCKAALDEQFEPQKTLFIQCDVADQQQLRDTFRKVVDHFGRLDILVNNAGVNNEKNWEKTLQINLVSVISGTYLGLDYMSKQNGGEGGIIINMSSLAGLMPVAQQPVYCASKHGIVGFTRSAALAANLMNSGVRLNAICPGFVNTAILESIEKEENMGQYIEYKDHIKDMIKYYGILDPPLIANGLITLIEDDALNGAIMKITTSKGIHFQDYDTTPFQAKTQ
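NADH formation kinetics: reaction with 30 uM PGE2 and 1 mM NAD+ (final), 20 nM enzyme, Tris-HCl pH 8 with Tween 20, after 15 min compound preincubation at room temperature. Fluorescence change, last versus first of five reads.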
The depositor's hits bear a star; ? = inconclusive. % is set by controls: 0 for no effect and ±100 for the full control effect; potency is the fitted concentration of half-maximal effect.

SMILES	HPGD inh
CCOC(=O)N1CCN(CC(=O)Nc2cccc(Br)c2)CC1	-1.8%
C/C(=N\NC(=O)c1ccncc1)c1cc2ccccc2oc1=O	?
CCOC(=O)N/N=C(\C)c1ccccc1OC(F)F	-10.4%
O=C(NCCCN1CCCC1=O)c1ccc(Cl)c(NS(=O)(=O)c2ccc(F)cc2)c1	-15.8%
S=c1[nH]nc(-c2cccc(Cl)c2)n1CCN1CCCCC1	-21.9%
COC(=O)c1ccc(COc2cccc(OC)c2)o1	-4.1%
C=CC(C)Sc1nc2c(c(=O)n(C)c(=O)n2C)n1Cc1ccccc1Cl (stereo not drawn)	-15.2%
CCn1nc2cc(C(=O)NCC34CC5CC(CC(C5)C3)C4)ccc2c1OC	?
Cc1ccc(N2C(=O)c3n[nH]c(C)c3C2c2ccccn2)cc1 (stereo not drawn)	-8.0%
COc1ccc(S(=O)(=O)Nc2ccc(O)c(Sc3nc4ccccc4s3)c2)cc1	25.1µM*
COc1ccc(/C=C/C(=O)Nc2ccccc2C(=O)N2CCCC2)cc1	-5.2%
COc1ccc(OC)c(NC(=O)Cc2coc3ccc4ccccc4c23)c1	?
CC(=O)NC1C(OCCOc2ccc(Cl)cc2Cl)OC(COC(C)=O)C(OC(C)=O)C1OC(C)=O (stereo not drawn)	-5.3%
COc1ccc(NC(=S)N2CCN(C(=O)c3ccco3)CC2)c(OC)c1	-10.6%
O=C(/C=C/c1cccc([N+](=O)[O-])c1)Nc1cccc(NC(=O)c2ccco2)c1	-11.3%
COc1cccc(N(C(=O)c2ccco2)C(C(=O)NC2CCCC2)c2cccnc2)c1 (stereo not drawn)	-9.9%
Cc1ccccc1NC1=NC(C)(C)N=C(N)N1	0.8%
CC1(C)CC(=O)C(C=Nc2ccc(O)cc2)=C(O)C1	-5.9%
CCOC(=O)c1ccc(N/C(=N\S(=O)(=O)c2ccccc2C)c2ccccc2)cc1	-11.5%
Nn1cnc2c(c1=O)C1(CCCCC1)Cc1ccccc1-2	2.0%
Cc1cccc(C)c1NC(=O)C(NC(=O)c1ccccn1)c1ccc([N+](=O)[O-])cc1 (stereo not drawn)	-9.6%
O=C(NC1CCCCCC1)c1c(F)c(F)c(F)c(F)c1F	-7.0%
O=C1C2CC=C(Cl)CC2C(=O)N1CCC[n+]1cccc2ccccc21 (stereo not drawn)	-15.2%
Cc1ccc(S(=O)(=O)N(c2cccc(C)c2)C2CCS(=O)(=O)C2)cc1 (stereo not drawn)	6.4%

At a glance, some entries already given.
SMILES	HPGD inh
S=c1[nH]nc(-c2cccc(Cl)c2)n1CCN1CCCCC1	-21.9%
COC(=O)c1ccc(COc2cccc(OC)c2)o1	-4.1%
C=CC(C)Sc1nc2c(c(=O)n(C)c(=O)n2C)n1Cc1ccccc1Cl (stereo not drawn)	-15.2%

Later entries:
SMILES	HPGD inh
O=[N+]([O-])c1cc(S(=O)(=O)N2CCCC2)ccc1N/N=C/c1ccncc1	-16.5%
CCN1CCc2c(C#N)c(N3CCOCC3)nc(NCc3ccccc3)c2C1	-18.0%
COc1ccc(-c2noc(CSc3nc(N)c(-c4ccccc4)c(=O)[nH]3)n2)cc1	-21.6%
Nc1ccc(-c2nc3c(Cl)c(N)ccc3[nH]2)cc1	?
COc1cccc(NC(=O)Cc2cn(C)c3ccccc23)c1	-16.7%
Cn1c(SCC(=O)NC2CCCCC2)nnc1-c1cccc(N)c1	?
CN1CCN(c2ccc([N+](=O)[O-])cc2C(=O)c2ccccc2)CC1	-9.0%
Cc1c(Br)cc(C(=O)N2CCCCCC2)c(C)c1C	14.1µM*
COCC(=O)Nc1cc(C(=O)OC)cc(C(=O)OC)c1	-14.7%
Clc1ccc(CN2CCC(c3nc4ccc(Cl)cc4[nH]3)CC2)cc1	-12.3%
O=C(NCc1ccccc1)NC1CC2CCC(C1)N2Cc1ccco1 (stereo not drawn)	-2.3%
CCC(C(=O)OCC(=O)Nc1c(C)n(C)n(-c2ccccc2)c1=O)c1ccccc1 (stereo not drawn)	-0.7%

Printed as active in HPGD inh (from the list above):
SMILES	HPGD inh
COc1ccc(S(=O)(=O)Nc2ccc(O)c(Sc3nc4ccccc4s3)c2)cc1	25.1µM*
Cc1c(Br)cc(C(=O)N2CCCCCC2)c(C)c1C	14.1µM*

Continued:
SMILES	HPGD inh
COc1ccc(C2c3c(ncn(CCN4CCOCC4)c3=N)Oc3ccc4ccccc4c32)cc1 (stereo not drawn)	-0.1%
COc1ccc(-c2ccnc(SCC(=O)c3ccc(Br)cc3)n2)cc1	?
COC(=O)c1cc(COc2ccc3c4c(c(=O)oc3c2)CCCC4)c(C)o1	?
O=C(Nc1nnc(SCc2c(Cl)cccc2Cl)s1)C1CCCO1 (stereo not drawn)	?
CC1Cc2cc(/C(O)=C3/C(=O)C(=O)N(CCCn4ccnc4)C3c3ccncc3)ccc2O1 (stereo not drawn)	-18.5%
COc1ccc(Nc2nc(-c3cccc([N+](=O)[O-])c3)nc3ccccc23)cc1	-28.8%
O=S(=O)(O)c1cc(N=Nc2cccc3ccccc23)c(O)c2ncccc12	?
O=C(CN1CCCCCC1)NCCc1ccc(F)cc1	-4.3%
COc1ccccc1NC(=O)Cn1nnc(C(=O)Nc2ccccc2)c1N	-7.5%
COc1cc(S(=O)(=O)n2c(C)nc3ccccc32)ccc1F	-10.6%
C/C(=N/NC(=O)c1cccs1)c1cccc(NC(=O)C2CC2)c1	-13.8%
CC(=O)OC1CC(C)(C)N(OC(=O)CCCN2C(=O)c3ccccc3C2=O)C(C)(C)C1	-9.4%
Cn1ncc2c(N3CCOCC3)ncnc21	3.5%
CC(=O)Nc1ccc(S(=O)(=O)N2CCOCC2)cc1	2.1%
C=CCn1c(O)c(N=NC(=O)c2ccc3c(c2)OCO3)c2ccccc21	-1.7%
O=C(C1=C(O)C(=O)N(CCOCCO)C1c1cccs1)c1cccs1 (stereo not drawn)	-9.8%
CC(=O)Nc1ccc(NC(=O)C(C)OC(=O)c2ccccc2C(=O)c2ccc(Cl)c([N+](=O)[O-])c2)cc1 (stereo not drawn)	-2.6%
CC(C)(C)c1ccc(OCCn2ccccc2=O)cc1	-7.6%
COc1ccc(Cc2c(O)nc(SC)n(C(C)=O)c2=O)cc1	-14.0%
O=C(c1ccccc1)c1cccn1CC(=O)N1CCN(C2CCCCC2)CC1	1.3%
CC(=O)c1c(C)nc2sc3c(=N)n(N)cnc3c2c1-c1ccc(Cl)cc1	-8.6%
CCOC(=O)c1cc(C)n(CCCN2CCOCC2)c1C	-8.8%
CCN1C(=O)/C(=C\N(C)C)c2ccccc21	-8.6%
CCCC(=O)Nc1nc2ccc(NC(=O)c3ccc(Br)o3)cc2s1	?
Cc1ccc(C)c(N=Nc2nc3ccccc3n2C)c1	-7.0%
CCCOC(=O)CSc1nnc(-c2ccc(Cl)cc2Cl)o1	?
CCOC(=O)c1c(C)[nH]c(C(=O)/C(C#N)=C/c2ccc(OC(F)F)c(OC)c2)c1C	-16.2%
O=C(O)c1ccc(Sc2nnnn2-c2ccccc2)c([N+](=O)[O-])c1	?
O=C(c1ccc(CNc2c(N3CCCC3)c(=O)c2=O)cc1)N1CCN(C2CCCCC2)CC1	-18.9%
CCCCNC(=O)C(=O)NC(C)CCc1ccccc1 (stereo not drawn)	-10.2%
Cc1cc(C(=O)N2CCN(c3ncccn3)CC2)c2cc(F)ccc2n1	-15.3%
CC1=C(C(=O)NC(C)C)C2(CCC(C)CC2)OC1=O (stereo not drawn)	-12.7%
CC(=O)CC(c1ccccc1)C1C(=O)Oc2ccccc2C1=O (stereo not drawn)	-12.2%
CC1(c2cccc([N+](=O)[O-])c2)CC(C)(C)N(C(=O)c2ccccc2)c2ccccc21 (stereo not drawn)	-16.7%
O=CN(CCN(C=O)CN1CCCCC1)CN1CCCCC1	-11.1%
CCOc1cc(/C=N/NC(=O)Cc2ccc(C(F)(F)F)cc2[N+](=O)[O-])c(Br)cc1OC	0.8%
O=C(COC(=O)c1ccccc1-c1nc2ccccc2s1)NC1CCS(=O)(=O)C1 (stereo not drawn)	-6.9%
COc1ccc(NCc2n[nH]nc2-c2ccccc2)cc1Cl	-7.6%
CCCN(CCC)CCCNC(=S)Nc1ccc2nc3n(c(=O)c2c1)CCCCC3	-5.5%
COc1cc(C2c3c(oc4ccccc4c3=O)C(=O)N2Cc2ccncc2)ccc1O (stereo not drawn)	-11.6%
O=C(OCC(=O)N1CCc2ccccc21)c1ccc(Cl)nc1	-6.2%
CC12CC3CC(C)(C1)CC(CN1CCOCC1)(C3)C2	-8.0%
Cc1cc(C(=O)COc2cccc(-n3cnnn3)c2)c(C)n1-c1ccccc1	-23.8%
c1ccc(C2=Nc3ccccc3SC2c2nc3ccccc3[nH]2)cc1 (stereo not drawn)	35.5µM*
O=[N+]([O-])c1ccc(Oc2cccc(Br)c2)c2ccncc12	-25.7%
CCCNC(=O)COc1ncnc2sc(C)c(C)c12	-2.8%
O=C(O)Cn1cc(C(=O)c2cccs2)c2ccccc21	-8.7%
NC(=O)C1CCN(C(=S)c2cccs2)CC1	-6.0%
CCOc1ccc(S(=O)(=O)NCCC(=O)NC2=NCCS2)cc1	1.0%
COC(=O)CCCC(=O)Nc1c(F)c(F)c(F)c(F)c1F	0.4%
O=C1C2CC=CCC2C(=O)N1CC(=O)N(Cc1ccccc1)C1CCS(=O)(=O)C1 (stereo not drawn)	-5.1%
CCN(CC)CCOC(=O)c1ccc(Cl)cc1	-7.5%
CC(C)C(=O)Nc1ccc(NC(=O)c2ccccc2Cl)nc1	-18.4%
c1cncc(-c2nc3c(ccc4ccccc43)[nH]2)c1	?
CCOC(=O)Cc1nnc(NC(=O)C(CC)Sc2nnc3c4ccccc4n(C)c3n2)s1 (stereo not drawn)	-19.6%
C=C(C)CN=C1NN=C(c2cc(C)n(-c3ccc(C)cc3)c2C)CS1	-26.1%
O=C(NCC1CCCO1)c1ccc(NC(=O)C2C3C=CC(C3)C2C(=O)O)cc1 (stereo not drawn)	-12.0%
COC(=O)C1=CC(C(=O)c2cccs2)=NN(c2ccc(OC)cc2)C1C(=O)OC (stereo not drawn)	-18.1%
O=C(Cn1cnc2c(cnn2-c2ccccc2)c1=O)N1CCCc2ccccc21	-5.8%
Cn1c(CO)cnc1SCc1ccccc1	1.7%
More compounds follow:
SMILES	HPGD inh
O=C(N/N=C\c1ccc(OCC(=O)N2CCCC2)cc1)C(=O)Nc1ccccc1F	-9.9%
COC(=O)CCC(=O)OC1(C)C(=O)C=C2C=C(C3CC3)N(c3ccc(CO)cc3)C=C2C1=O (stereo not drawn)	-6.4%
Cc1cccc(CSC(Nc2ccc(F)cc2)=C(C#N)C#N)c1	-3.9%
CC(C)(C)c1cc(C(=O)Nc2cccc3ccccc23)ccn1	-16.0%
Cc1nn(Cc2ccc(Cl)c(Cl)c2)c(C)c1NC(=O)c1sc2ccccc2c1Cl	-25.3%
CCN1CCN(Cc2ccc(NC(=O)CC3Oc4ccc(C)cc4NC3=O)cc2)CC1 (stereo not drawn)	-0.9%
CCOC(=O)c1cc2cc(OC)ccc2nc1C	?
CN(CC(=O)NCCc1ccccc1)S(=O)(=O)c1cnc[nH]1	-0.3%
O=C(Nc1ccc2nc3n(c(=O)c2c1)CCCC3)c1cc([N+](=O)[O-])ccc1F	-5.3%
O=C(Nc1cccc(Cl)c1)Nc1cccc(Cl)c1	-4.2%
O=c1c2c(nc3cc(-c4ccc(F)cc4)[nH]n13)CCC2	?
C=CCc1c(C)nc(-c2ccccc2)nc1N/N=C(\C)c1ccc(N)cc1	?

Entries shown so far with bromine (6):
SMILES	HPGD inh
CCOC(=O)N1CCN(CC(=O)Nc2cccc(Br)c2)CC1	-1.8%
Cc1c(Br)cc(C(=O)N2CCCCCC2)c(C)c1C	14.1µM*
COc1ccc(-c2ccnc(SCC(=O)c3ccc(Br)cc3)n2)cc1	?
CCCC(=O)Nc1nc2ccc(NC(=O)c3ccc(Br)o3)cc2s1	?
CCOc1cc(/C=N/NC(=O)Cc2ccc(C(F)(F)F)cc2[N+](=O)[O-])c(Br)cc1OC	0.8%
O=[N+]([O-])c1ccc(Oc2cccc(Br)c2)c2ccncc12	-25.7%

Going on with the list:
SMILES	HPGD inh
O=C(O)C=C1CCN(c2ncc(C(F)(F)F)cc2Cl)CC1	-5.2%
CCOC(=O)CCc1c(C)c(C#N)c2nc3ccccc3n2c1-n1ccnc1C	-2.5%
CCCOc1ccc(C(=O)C(CN2CCCC2)c2ccccc2)cc1 (stereo not drawn)	-2.8%
Cc1ccc(-n2[nH]c(C)c(C=Nc3ccc(S(=O)(=O)Nc4nc(C)cc(C)n4)cc3)c2=O)c(C)c1	22.4µM*
COc1nc(N)nc(CC(=O)C2CC2)n1	-3.0%
CCc1ccc(-c2csc(NC(=O)C3=NN(c4ccccc4)C(=O)CC3)n2)cc1	-14.5%
CC(C1CC1)N(C(=O)NC1CCS(=O)(=O)C1)c1ccccc1 (stereo not drawn)	-7.1%
O=C(CSc1cn(CCNC(=O)c2cccs2)c2ccccc12)NC1CCCCC1	-29.5%
Nn1c(SCC(=O)N2CCOCC2)nnc1-c1ccc(Cl)cc1Cl	-4.3%
CCCN(CCC)C(=O)CSc1ncccc1C(=O)O	1.9%
CN(CC(=O)NC1CCCc2ccccc21)S(=O)(=O)c1ccc2c(c1)c(=O)n(C)c(=O)n2C (stereo not drawn)	-11.8%
CC(=O)c1c(N2CCN(c3ccc(F)cc3)CC2)nc(=S)n(-c2ccccc2)c1C	-7.9%
C/C(=N\NC(=O)c1nc(C)cc(C)n1)c1ccccc1	-5.8%
CN(CC(=O)Nc1cc([N+](=O)[O-])ccc1Cl)Cc1ccc(Br)cc1	-10.7%
Cc1ccc2c(CC(=O)OCc3nc(N)nc(Nc4ccccc4C)n3)coc2c1	-17.1%
COc1ccc2c(c1)c(CC(=O)O)c(C)n2C(=O)c1ccccc1	-18.8%
C[C@H](NC(=O)Nc1ccc2c(c1)OCCO2)C(=O)O	-8.6%
Cn1c(NN)nc2sc3c(c2c1=O)CCC3	-3.6%
CCSc1sccc1C1C(C#N)=C(N)N(c2cccnc2)C2=C1C(=O)CCC2 (stereo not drawn)	-7.7%

Not all compounds are listed; count on the stated rates, not on these rows.
